Screens from PubChem.
Beta cell apopt – blocks beta cell apoptosis. INS-1E cytokine-induced death, ATP luminescence, 48 h; percent of positive-control rescue, neutral wells zero. protection from apoptosis, % (concentration not given with the values). actives 0.8% (n = 300,000);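 active = all replicates at 75% or more, or half of them and the mean; inconclusive = half reach 75% but not the mean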;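 note: 0% = cytokine-treated negative control wells and 100% = positive control rescue; higher means more ATP so stronger rescue from cytokine killing; wells of about 40 µL received 100 nL stock; the first replicate is given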
MLL AF4-AF9 inh – blocks AF4 peptide binding to human AF9. AlphaScreen, biotin-AF4 peptide binding to FLAG-AF9. AID 651704. inhibition, % at 10 µM. P42568. actives 0.47% (n = 350,000);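 active = every replicate reaching a set inhibition limit, whatever the replicate mean, cut at about 25% in these data; inconclusive = mean inhibition reaches that limit but some replicates miss it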;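 note: 0% = plate neutral control median and 100% = total signal loss; the record names both 10 and 1 µM as test concentration; the first replicate is given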
Target sequence (P42568 whole entry, looked up): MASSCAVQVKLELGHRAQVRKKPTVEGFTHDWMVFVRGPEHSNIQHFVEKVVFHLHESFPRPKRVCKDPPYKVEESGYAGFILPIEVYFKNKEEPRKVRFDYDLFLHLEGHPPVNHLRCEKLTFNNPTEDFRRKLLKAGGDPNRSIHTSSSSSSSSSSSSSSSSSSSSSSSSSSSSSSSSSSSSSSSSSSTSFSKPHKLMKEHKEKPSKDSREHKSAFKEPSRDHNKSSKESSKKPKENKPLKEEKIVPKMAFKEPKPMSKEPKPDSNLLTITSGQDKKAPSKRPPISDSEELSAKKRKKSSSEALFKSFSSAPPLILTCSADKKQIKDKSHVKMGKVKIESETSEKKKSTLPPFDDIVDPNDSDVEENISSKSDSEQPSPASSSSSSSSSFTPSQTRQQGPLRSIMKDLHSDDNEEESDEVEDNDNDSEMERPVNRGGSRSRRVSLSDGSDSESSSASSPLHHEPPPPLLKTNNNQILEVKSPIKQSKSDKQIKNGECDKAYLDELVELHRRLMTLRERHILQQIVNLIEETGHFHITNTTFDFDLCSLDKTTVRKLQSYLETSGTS
rRNA inh HTS – inhibitors of bacterial rRNA selective over humanized ribosomes; GFP signal change (wild-type ribosome), % (concentration not given with the values); E. coli WT GFP vs humanized-ribosome RFP mutants, fluorescence, 24 h; active compounds read low; DMSO median 0, no signal -100; actives 1.6% (n = 350,000); AID 720706;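 active = significant combined selectivity score with lowered wild-type GFP, culture density cut under 30%, mutant RFP and density less affected; inactive = any of these conditions unmet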; note: one replicate is shown; some compounds called inactive have numbers as strong as hits
T cruzi repl – T. cruzi replication inhibition | T. cruzi beta-gal in NIH3T3, luminescence, 90 h | actives 1.4% (n = 300,000) | inhibition, % (concentration not given with the values) | AID 1885;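 active = mean inhibition across valid replicates above about 55%, limit read from the data; inconclusive = mean below that limit but half or more replicates reach it; inactive = mean below it, under half of replicates reach it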;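 note: signal also drops with host cell toxicity which is not excluded here; 0% = plate median of DMSO wells and 100% = zero luminescence signal; higher percent means less beta-gal luminescence so fewer parasites; stock transfer was 50 nL into about 50 µL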
UCH37 DUB inh – inhibitors of human deubiquitinating enzyme UCH37. Q9Y5K5. purified proteasome/UCH37, Ub-AMC cleavage fluorescence. inhibition, % (concentration not given with the values). actives 0.33% (n = 330,000);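 active = mean of two replicates above 20%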;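 note: 0% = compound-free wells with enzyme and 100% = wells lacking proteasome; stock transfer was 100 nL into about 20 µL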
Target sequence (Q9Y5K5 whole entry, looked up): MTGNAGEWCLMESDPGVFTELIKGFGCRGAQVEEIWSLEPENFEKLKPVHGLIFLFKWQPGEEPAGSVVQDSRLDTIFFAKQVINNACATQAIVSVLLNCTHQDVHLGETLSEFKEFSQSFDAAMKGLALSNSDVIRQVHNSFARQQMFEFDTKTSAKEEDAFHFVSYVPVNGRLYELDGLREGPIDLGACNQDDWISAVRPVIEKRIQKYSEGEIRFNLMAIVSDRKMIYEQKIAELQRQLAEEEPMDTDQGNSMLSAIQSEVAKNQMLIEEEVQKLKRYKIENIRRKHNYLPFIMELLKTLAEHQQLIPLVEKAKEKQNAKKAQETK
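Test system – human UCH37 enzyme supplied as purified proteasome complex · Incubation – 30 min preincubation with enzyme, 25 min cleavage at room temperature · Detection – AMC fluorescence from Ub-AMC cleavage, excitation 355 nm, emission 460 nm · Benchmarks – no-proteasome wells (full inhibition) and compound-free wells (no inhibition)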
A1 inh – inhibitors of the anti-apoptotic protein A1, read as caspase activation. MEF A1-2A-BIM cells, Caspase-Glo 3/7 luminescence, 3 h; percent of clofoctol response, vehicle zero. caspase activation, % (test concentration not listed). actives 0.066% (n = 330,000). AID 2462;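 active = over half of replicate activation scores above 10%, or exactly half above 10 with the replicate mean above 10; inconclusive = replicate mean below 10 yet half the replicates above 10; inactive = over half of replicates below 10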;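 note: wells of about 30 µL received 50 nL stock; many hits fall short of the cut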
E coli growth – E. coli growth inhibition; AID 1053175; OD600 absorbance (test concentration not listed); Escherichia coli growth, OD600, 23 h; active compounds read low; actives 0.21% (n = 330,000);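 active = OD600 absorbance below the run mean of sample wells minus 3.6 SD, in any replicate, cut at about 0.56 in these data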;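 note: stock transfer was 300 nL into about 60 µL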
FGF22 binding – binders of recombinant human FGF22 by thermal shift | actives 1.5% (n = 340,000) | Q9HCT0 | SYPRO orange fluorescence; percent of sucrose octasulfate shift, DMSO zero | AID 651658 | calls only at 9.99 µM;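 active = melting point raised past a set limit in the mean and every replicate; inconclusive = no clear call; three in four hits are not shown here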
Target sequence (Q9HCT0 whole entry, looked up): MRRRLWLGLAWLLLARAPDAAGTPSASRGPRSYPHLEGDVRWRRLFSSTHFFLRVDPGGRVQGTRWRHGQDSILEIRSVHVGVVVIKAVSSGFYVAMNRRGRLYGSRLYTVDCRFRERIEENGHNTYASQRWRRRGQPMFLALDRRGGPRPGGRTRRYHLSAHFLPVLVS
rRNA inh HTS OD600 – also measured in rRNA inh HTS; calls as there; OD600 change, %; measured here: OD600 growth;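 optical density of the mix in the first replicate; 0 = DMSO median and -100 = no signal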
rRNA inh HTS RFP – also measured in rRNA inh HTS; calls as there; RFP signal change, %; measured here: RFP humanized mutant strains;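 first replicate; 0 = DMSO median and -100 = no signal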
* marks the source's active call; other numbers are inactive results; i = inactive; u = inconclusive; x = no result given. Some of the compounds tested; rates above refer to the full screens.

SMILES | Beta cell apopt | MLL AF4-AF9 inh | rRNA inh HTS | rRNA inh HTS OD600 | rRNA inh HTS RFP | T cruzi repl | UCH37 DUB inh | A1 inh | E coli growth | FGF22 binding
COc1ccc(/C=C/C(=O)Nc2cccnc2Cl)cc1 | 0.2 | 0.4 | 7.9 | -0.9 | -2.2 | -11.9 | 6.2 | -11.3 | 0.661 | i
Cc1ccc(S(=O)(=O)N2CCOC23CCN(C(=O)c2cc(Cl)ccc2Cl)CC3)cc1 | -17.8 | 3.2 | -4.8 | -30.1 | 4.5 | 10.3 | -1.1 | -1.9 | 0.674 | i
CCCCN(Cc1ccccc1)C1CCN(Cc2ccccc2)CC1 | -0.1 | 6.3 | 3.4 | -2.6 | 0.9 | 12.3 | 0.9 | -0.1 | 0.666 | i
COC(/C=C/Nc1ccc(OC)cc1)=C(C#N)C#N | 4.3 | 2.1 | 8.1 | 8.8 | 10.0 | -1.9 | 3.5 | 0.4 | 0.669 | i
COc1ccc(-c2nn3c(C4CCCCC4)nnc3s2)cc1OC | 3.2 | x | x | x | x | -2.8 | -1.7 | x | 0.607 | x
CCCc1noc(-c2cccc([N+](=O)[O-])c2)n1 | -1.3 | -1.2 | 13.6 | 7.6 | -2.4 | 1.7 | 0.0 | -0.9 | 0.665 | i
Cc1nc(CS(=O)(=O)c2ccccc2)cc(N2CCN(c3ccccc3F)CC2)n1 | 3.1 | -2.3 | 6.6 | 4.8 | 3.4 | 9.3 | 6.0 | 0.6 | 0.707 | i
COc1ccc(F)cc1S(=O)(=O)NCC(c1ccc2c(c1)OCO2)N1CCN(C)CC1 (centres undefined) | -0.9 | -0.2 | 8.7 | 15.3 | -1.7 | -3.5 | 1.8 | 1.6 | 0.636 | i
CCOc1ccc(-n2cc(C(=O)NCCOC)c3cc(OC)c(OC)cc3c2=O)cc1 | -1.5 | 3.6 | -16.1 | -19.4 | -2.8 | 0.6 | 0.0 | 0.7 | 0.614 | i
CCCCCN(C(=O)COC(=O)COc1c(C)cc(C)cc1C)c1c(N)n(CCCC)c(=O)[nH]c1=O | x | u | 3.7 | 4.5 | -0.9 | -1.7 | 0.5 | -0.7 | 0.659 | i
CC(C)(C)NC(=O)NC(=O)CN1CCc2ccccc21 | 17.5 | 3.5 | 15.2 | 5.1 | 8.5 | 9.0 | 4.0 | 0.8 | 0.702 | i
Cc1cccc(OCc2nnc(SCC(=O)Nc3cccc(C(=O)N4CCOCC4)c3)n2C)c1 | -0.4 | 0.8 | 0.8 | -1.0 | 0.1 | -6.5 | 3.4 | -0.6 | 0.733 | i
Cc1csc(=O)n1CCC(=O)OCC(=O)Nc1cc([N+](=O)[O-])ccc1Cl | -3.7 | 0.9 | -10.7 | 6.3 | -4.6 | -15.3 | 4.2 | 0.4 | 0.688 | i
O=C1NC2(CCCCCC2)C(=O)N1Cc1ccccc1 | -3.1 | -0.4 | -14.1 | -17.4 | -16.9 | -11.9 | 3.4 | 0.2 | 0.676 | i
COc1ccc(CC(=O)NNC(=O)CSc2nnc(Cc3ccc(OC)cc3)n2-c2ccccc2)cc1 | 0.8 | 0.2 | -12.0 | -17.8 | -4.7 | 5.0 | 0.0 | 1.8 | 0.686 | i
CCCN(CC(=O)Nc1cc(C)on1)CC(=O)Nc1ccccc1C | 2.0 | -1.0 | 5.6 | 12.9 | 1.3 | x | -0.6 | -0.5 | 0.629 | i
CC(C)(C)c1ccc(-n2ncc3c2CCCC3NC(=O)c2csnn2)cc1 (centres undefined) | 13.7 | -1.6 | 7.9 | 2.1 | 0.5 | -16.8 | -1.3 | -0.1 | 0.743 | i
COC(=O)c1cc(-c2c(-c3ccc4c(c3)OCO4)noc2-c2ccsc2)cc([N+](=O)[O-])c1 | 5.9 | 3.0 | 23.2 | 23.8 | 4.7 | -16.5 | 3.5 | -2.3 | 0.693 | i
Cc1ccc(Cn2c(SCC(=O)NCC3CCCO3)nc3ccsc3c2=O)cc1 (centres undefined) | -1.0 | -0.2 | 4.4 | 2.5 | 3.2 | 9.1 | 4.2 | -0.5 | 0.688 | i
CCOC(=O)c1cc(C)sc1NC(=O)C(c1ccccc1)c1ccccc1 | 0.5 | -3.7 | 9.1 | 8.8 | 2.3 | 28.7 | -0.3 | 1.6 | 0.741 | i
COc1cc2ccccc2cc1C(=O)NC1CCC(C)CC1 (centres undefined) | -15.6 | -2.6 | -0.4 | -7.4 | -4.6 | x | -14.1 | -2.0 | 0.66 | i
O=C(O)CNC(=O)CCN1C(=O)c2ccccc2C1=O | -4.4 | x | x | x | x | -8.7 | 1.3 | -0.8 | 0.748 | x
Cc1cc2c([nH]c3ccccc32)c(C)n1 | 5.9 | 0.6 | -36.9 | -49.0 | -1.4 | -9.5 | i | -0.3 | 0.644 | i
CC(C)[C@H](NC(N)=O)C(=O)Nc1ccc(F)c(Cl)c1 | 2.2 | -1.4 | -1.5 | 3.7 | -1.5 | -3.8 | 4.8 | 0.3 | 0.686 | i
CCOc1ccc(NC(=O)CN2CCN(CC(=O)Nc3ccc(Cl)c(C(F)(F)F)c3)CC2)cc1 | -14.1 | x | -28.2 | -53.0 | -3.8 | 11.3 | 3.8 | 1.1 | 0.664 | x
Cc1ccc(/C=C/C(=O)OCC(=O)NCCc2ccc(S(N)(=O)=O)cc2)o1 | 8.1 | -6.4 | 8.7 | 8.2 | 3.5 | x | 11.2 | -1.3 | 0.721 | i
C[C@@H]1C[C@H]2[C@@H]3CCC4=CC(=O)C=C[C@]4(C)[C@@]3(F)[C@@H](O)C[C@]2(C)[C@@]1(O)C(=O)COP(=O)(O)O | -7.2 | -0.9 | 2.9 | 7.0 | 1.5 | 9.2 | 3.0 | 0.6 | x | i
CC(C)CS(=O)(=O)C1=NN2C(=N)/C(=C\c3ccc(OC(=O)c4ccco4)cc3)C(=O)N=C2S1 | -1.6 | 0.5 | -1.1 | -0.6 | 3.6 | -4.0 | x | 0.2 | x | i
Cc1noc(/C=C/N(C)C)c1S(=O)(=O)N1CCC(C(=O)NC(C)(C)C)CC1 | -2.5 | 1.5 | 4.7 | 7.3 | 1.0 | -21.5 | 15.1 | -0.6 | 0.684 | i
O=C(O)c1ccccc1-c1ccccc1C(=O)NCc1ccco1 | 1.0 | x | x | x | x | -3.5 | 2.0 | -0.5 | 0.716 | x
COc1cccc(C(=O)Nc2c(C)n[nH]c2C)c1 | -1.5 | x | x | x | x | -15.6 | 0.4 | 0.7 | 0.673 | x
O=S(=O)(c1ccc(Cl)s1)N1CCc2ccccc2C1 | -9.5 | x | x | x | x | 12.7 | 4.7 | -0.3 | 0.595 | x
O=c1cc2c(c(-c3ccccc3)n1Cc1ccccc1)[C@@H](CCO)NC2 | x | 2.5 | 7.4 | -3.3 | 4.9 | x | -3.4 | x | 0.711 | i
Cc1cccn(Cc2c(F)cccc2Cl)c1=O | -10.7 | 0.5 | 11.2 | -9.4 | 0.8 | -5.2 | 4.9 | 0.4 | 0.662 | i
O=C(CCN1C(=O)/C(=C/c2ccc(F)cc2)SC1=S)N[C@@H](CO)Cc1ccccc1 | -44.6 | 1.0 | 0.6 | 6.0 | 2.9 | 2.9 | 2.7 | u | 0.731 | i
CCN(CC)S(=O)(=O)c1ccc(N2CC(C(=O)NCCc3ccc(Cl)cc3)CC2=O)cc1 (centres undefined) | -0.6 | -11.4 | 1.7 | -1.3 | 6.7 | x | -0.1 | 0.5 | 0.717 | i
O=C(CSc1nnc(-c2ccc(F)cc2)c2ccccc12)NCC1CCCO1 (centres undefined) | -4.0 | -11.7 | -1.3 | -4.8 | 1.2 | 5.4 | 6.4 | -0.2 | 0.652 | i
[C-]#[N+][C@H](O[C@@H]1O[C@H](CO)[C@@H](O)[C@H](O)[C@H]1O)c1ccccc1 | -4.9 | -2.3 | 28.2 | 0.8 | 6.1 | -13.5 | 4.8 | -0.5 | 0.776 | i
CCOc1ccc(S(=O)(=O)NCCCl)cc1 | -0.1 | -3.9 | 13.5 | 18.5 | 1.2 | -3.9 | -2.4 | 0.2 | 0.666 | i
CCN(C(=O)CSc1nnc(C)n1Cc1ccccc1)C1CCS(=O)(=O)C1 (centres undefined) | 0.8 | -0.7 | 24.3 | 16.9 | -1.4 | -7.8 | 2.6 | -0.6 | 0.685 | x

Two of these compounds in another layout:
smiles	Beta cell apopt	MLL AF4-AF9 inh	rRNA inh HTS	rRNA inh HTS OD600	rRNA inh HTS RFP	T cruzi repl	UCH37 DUB inh	A1 inh	E coli growth	FGF22 binding
O=S(=O)(c1ccc(Cl)s1)N1CCc2ccccc2C1	-9.5	x	x	x	x	12.7	4.7	-0.3	0.595	x
O=c1cc2c(c(-c3ccccc3)n1Cc1ccccc1)[C@@H](CCO)NC2	x	2.5	7.4	-3.3	4.9	x	-3.4	x	0.711	i

Continued.
SMILES | Beta cell apopt | MLL AF4-AF9 inh | rRNA inh HTS | rRNA inh HTS OD600 | rRNA inh HTS RFP | T cruzi repl | UCH37 DUB inh | A1 inh | E coli growth | FGF22 binding
Cc1cc(-c2nn(-c3ccccc3F)cc2CN2CCC(C(N)=O)CC2)c(C)s1 | -9.2 | 6.6 | 6.3 | 9.5 | -8.7 | -8.4 | 0.9 | 0.6 | 0.675 | i
N#CC1=C(N)C(C#N)(C#N)[C@H](c2cccnc2)[C@H]2CN(C(=O)OCc3ccccc3)CC=C12 | -16.3 | 0.5 | 0.8 | 3.0 | 3.0 | -2.3 | -2.3 | -0.9 | 0.703 | i
Cc1ccc(C2=Nc3cccnc3C(c3ccccc3)=NN2)cc1 | 2.0 | 0.2 | 11.5 | 5.0 | -5.2 | -5.0 | 4.7 | -4.2 | 0.701 | i
C[C@@]12C(=O)Nc3ccccc3C(=O)N1[C@H]1c3cc(Br)ccc3OC[C@@H]1[C@@H]2c1ccccc1 | 6.7 | 0.1 | 3.8 | -8.4 | -0.8 | x | 2.3 | 0.1 | x | i
COc1ccccc1NC(=S)NC(=O)C(C)(C)C | -4.1 | -10.0 | -5.4 | 2.0 | 0.3 | -3.1 | 2.4 | 0.1 | 0.699 | i
Cc1cc2nc(C3CCN(Cc4nnnn4Cc4cccs4)CC3)[nH]c2cc1C | -11.2 | 4.7 | -29.2 | -17.7 | 21.5 | -9.1 | 3.7 | -0.4 | 0.731 | i
CN(C)CCNC(=O)c1c(NC(=O)c2ccccc2)sc2c1CCCC2 | x | 9.9 | -34.7 | -48.4 | 0.4 | 46.2 | -0.1 | -0.4 | 0.659 | i
Cc1nc(Nc2cccc(C(C)O)c2)c2nnn(Cc3ccccc3F)c2n1 (centres undefined) | 3.7 | 3.8 | -14.1 | 1.7 | -1.9 | 13.7 | -6.2 | 0.0 | 0.648 | i
CC1CN(C(=O)COC(=O)Cc2c(Cl)cccc2Cl)CC(C)O1 (centres undefined) | -1.4 | -0.4 | 4.4 | -5.2 | 3.7 | x | 1.9 | 3.0 | 0.723 | i
CCS(=O)(=O)Nc1cccc(-c2cc(-c3ccccc3)c3cc(C)ccc3n2)c1 | 0.0 | x | x | x | x | 15.9 | -5.4 | 1.8 | 0.721 | x
